Env fusion inh = HIV envelope-mediated fusion inhibition. HeLa-JRFL Env/CEM21 cell fusion, luciferase. inhibition, % at 12.3 µM. 360,000 tested, 1.1% active. AID 651610;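 active means mean replicate inhibition score of at least 50 and every replicate individually at or above 50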;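 further: 0% = plate neutral controls and 100% = maraviroc near 300 nM; one replicate is shown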
CSC inhib = cancer stem cell inhibition | cancer stem cell-like cells viability, luminescence | inhibition, % at 7.5 µM | 300,000 tested, 1.1% active;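 active means mean at 75% or more and at least half the replicates too; tested in HMLE shEcad cells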;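 further: 0% = median of negative and 100% = median of positive control wells; the first replicate is given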
PABP FP inh = blocks human PABP binding to poly(A) RNA; P11940; fluorescence polarization; inhibition, % at 35 µM; 290,000 tested, 1% active; AID 2014;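 active means 50% or more with normal probe brightness, or confirmed in later tests; about a fifth of its hits are not listed in these tables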;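 further: calls also rest on retests at 20 µM and on dose response follow-up; controls were probe without protein and protein plus probe with vehicle; some compounds called inactive have numbers as strong as hits; many hits fall short of the cut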
Target sequence (P11940 whole entry, looked up): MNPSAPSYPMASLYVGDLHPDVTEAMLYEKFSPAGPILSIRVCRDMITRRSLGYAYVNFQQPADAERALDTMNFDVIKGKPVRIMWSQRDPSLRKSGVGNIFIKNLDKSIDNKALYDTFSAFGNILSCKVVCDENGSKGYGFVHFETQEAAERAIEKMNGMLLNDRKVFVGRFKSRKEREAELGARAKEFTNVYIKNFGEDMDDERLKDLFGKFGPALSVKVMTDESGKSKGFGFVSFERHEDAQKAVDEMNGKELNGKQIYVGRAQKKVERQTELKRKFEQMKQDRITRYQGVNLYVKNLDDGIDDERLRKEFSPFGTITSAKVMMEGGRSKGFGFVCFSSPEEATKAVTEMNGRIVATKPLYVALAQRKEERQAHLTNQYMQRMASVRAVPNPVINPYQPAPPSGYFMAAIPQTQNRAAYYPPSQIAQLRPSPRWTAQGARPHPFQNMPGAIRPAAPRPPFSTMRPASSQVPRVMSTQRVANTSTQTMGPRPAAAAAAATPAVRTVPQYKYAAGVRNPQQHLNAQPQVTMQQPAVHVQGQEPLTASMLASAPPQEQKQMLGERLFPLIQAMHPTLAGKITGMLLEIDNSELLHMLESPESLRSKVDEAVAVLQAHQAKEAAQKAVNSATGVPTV
Rce1 inh = inhibitors of yeast Ras-converting enzyme. Q03530. yeast membranes, quenched prenylated peptide cleavage fluorescence. calls only. 290,000 tested, 0.27% active. AID 2563;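 active means fall in fluorescence gain of 50% or more versus controls, with final raw signal at or below 3038400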;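 further: plate controls were neutral control wells for no effect and wells lacking membranes for full effect; tested at 10 µM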
MT1-MMP act inh = MT1-MMP (human) activation inhibition | P50281 | 360,000 tested, 0.061% active | AID 651647 | HT1080 RFP-PRO-GFP cells, GFP/RFP ratio fluorescence, overnight; percent of plate control window, DMSO zero | GFP/RFP ratio change, % at 20 µM;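 active means GFP/RFP ratio change of at least 30% with cell ATP level not reduced by more than half and red fluorescence within 50% of control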; further: strong numbers were not always called active
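Material: RFP-PRO-GFP reporter HT1080 cells. Dosing: single-point 20 µM compound, 1% DMSO. Controls: DMSO and RFP-L50D-GFP cell wells. Timing: cells overnight before dosing, compound overnight, 37 °C, 5% CO2. Measure: GFP/RFP fluorescence ratio.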
eIF4H inh = inhibitors of RNA binding by human eIF4H | eIF4H fluorescence polarization binding assay | inhibition, % at 35 µM | 290,000 tested, 0.94% active | AID 2012 | Q15056;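 active means 50% or more with normal probe brightness, or confirmed in later tests; about a fifth of its hits are not listed in these tables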;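 further: calls also rest on retests at 20 µM and on dose response follow-up; 0% = protein and probe with vehicle and 100% = probe without protein; strong numbers were not always called active; many hits fall short of the cut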
Yeast UUG start = modulators of start codon recognition fidelity in yeast. AID 602363. S. cerevisiae UUG-firefly luciferase reporter, luminescence/redox ratio. 350,000 tested, 0.13% active. activity score, % at 18.7 µM;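 active means replicate mean at a twofold rise or more, about +100% in these data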;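 further: firefly luciferase made from a UUG start codon reports start codon fidelity; reporter light over untreated wells divided by growth signal over untreated wells; some hits fall short of that in this replicate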
eIF4H inh retest = further read-out of eIF4H inh, marked with its call; inhibition, %; compound at 20 µM; confirmation average;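 mean of two retest wells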
PABP FP inh retest = further read-out of PABP FP inh, marked with its call; inhibition, %; compound at 20 µM; confirmation repeats;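 mean of two retest wells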
MT1-MMP act inh RFP = recorded beside MT1-MMP act inh, whose call it bears; RFP signal change, %; measured here: RFP expression control read;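 0 = vehicle wells; hits needed this value within 50% of zero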
* hit, by the source's call; i = inactive; . = not tested or not shown.

SMILES	Env fusion inh	CSC inhib	PABP FP inh	Rce1 inh	MT1-MMP act inh	MT1-MMP act inh RFP	eIF4H inh	Yeast UUG start	others
Cc1ccc(-c2cc(C(=O)NCC3CCCO3)no2)cc1 (stereo unspecified)	-65	.	-1	i	3	3	2	-16
O=C(C#Cc1ccccc1)Nc1ccc(F)cc1	-40	-3	6	i	5	-1	-14	-8
COc1ccccc1C(=O)NCCc1c(C)[nH]c2c(C)ccc(F)c12	-1	-9	-3	i	-3	-4	-26	.
C=CCN1C(=O)C(C(C)CC)NC1=S (stereo unspecified)	-54	1	-9	i	3	1	-1	.
CCc1ccc(OCC(=O)N(C)C2CCS(=O)(=O)C2)cc1 (stereo unspecified)	.	-10	-3	i	-2	1	-1	-14
CCc1cccc(C)c1NC(=O)c1ccc2c(c1)CCN2S(C)(=O)=O	7	-9	17	i	3	0	7	-1
CCN(CCn1cccn1)C(=O)CCc1nnc(C2(c3ccc(Cl)cc3)CCC2)o1	-39	54	-4	i	-8	-9	2	.
CC(C)[C@H](NC(=O)c1ccco1)C(=O)OCC(=O)c1ccc2c(c1)NC(=O)CO2	17	-17	8	i	1	1	4	.
O=C(O)C1Nc2c(O)cccc2C2C=CCC12 (stereo unspecified)	.	-12	6	.	18	18	99*	.	eIF4H inh retest=74*;PABP FP inh retest=45
Cc1cc(C(F)(F)F)n(-c2nc(C(=O)NNS(=O)(=O)c3ccccc3)cs2)n1	-68	1	-3	i	-2	1	0	-13
CCOC(=O)C(Cc1ccc(OC)c([N+](=O)[O-])c1)NC(=O)CCC(=O)Nc1ccc(OC)cc1 (stereo unspecified)	-32	11	-12	i	-2	2	-2	.
Cc1c(C(=O)NCc2ccco2)sc2nc(-c3ccccc3)cn12	-42	50	-8	i	2	-3	4	-11
Cn1ccnc1SCC(=O)c1ccc(OC(F)F)cc1	-16	0	-4	i	1	0	-10	-6
COC(=O)c1cc(C)sc1NC(=O)CCc1ccccc1	-8	.	0	i	-2	0	-1	10
COc1cc2c(cc1OC)C(c1cc3ccc(C)cc3[nH]c1=O)N(C(=O)c1ccco1)CC2 (stereo unspecified)	4	.	-3	i	-3	-6	-5	11
COc1ccc(NS(=O)(=O)c2ccc3c(c2)oc(=O)n3C)c(OC)c1	-54	-9	1	i	5	-3	-5	-7
O=C(CSCc1cc(=O)n2ccsc2n1)Nc1ccc(F)cc1	-4	-3	4	i	-2	7	-10	16
COc1ccc(N/C=C/C(=O)c2ccc(OC)c(OC)c2)cc1	11	11	-4	.	-4	1	-4	-16
CCOC(=O)CCNC(=O)Nc1cc2nc(C)n(Cc3cccc(Cl)c3)c2nc1C	6	-5	5	i	1	2	-6	-9
CN(CC(=O)Nc1ccccc1C(F)(F)F)C(=O)CCc1nc2ccccc2c(=O)[nH]1	-27	0	.	i	-2	0	.	-8

A draw from above in order of SMILES length, lowest first.
SMILES	Env fusion inh	CSC inhib	PABP FP inh	Rce1 inh	MT1-MMP act inh	MT1-MMP act inh RFP	eIF4H inh	Yeast UUG start	others
C=CCN1C(=O)C(C(C)CC)NC1=S (stereo unspecified)	-54	1	-9	i	3	1	-1	.
O=C(O)C1Nc2c(O)cccc2C2C=CCC12 (stereo unspecified)	.	-12	6	.	18	18	99*	.	eIF4H inh retest=74*;PABP FP inh retest=45
Cn1ccnc1SCC(=O)c1ccc(OC(F)F)cc1	-16	0	-4	i	1	0	-10	-6
COC(=O)c1cc(C)sc1NC(=O)CCc1ccccc1	-8	.	0	i	-2	0	-1	10
Cc1ccc(-c2cc(C(=O)NCC3CCCO3)no2)cc1 (stereo unspecified)	-65	.	-1	i	3	3	2	-16
O=C(CSCc1cc(=O)n2ccsc2n1)Nc1ccc(F)cc1	-4	-3	4	i	-2	7	-10	16
CCc1ccc(OCC(=O)N(C)C2CCS(=O)(=O)C2)cc1 (stereo unspecified)	.	-10	-3	i	-2	1	-1	-14
COc1ccc(N/C=C/C(=O)c2ccc(OC)c(OC)c2)cc1	11	11	-4	.	-4	1	-4	-16
Cc1c(C(=O)NCc2ccco2)sc2nc(-c3ccccc3)cn12	-42	50	-8	i	2	-3	4	-11
COc1ccccc1C(=O)NCCc1c(C)[nH]c2c(C)ccc(F)c12	-1	-9	-3	i	-3	-4	-26	.
CCc1cccc(C)c1NC(=O)c1ccc2c(c1)CCN2S(C)(=O)=O	7	-9	17	i	3	0	7	-1
CCOC(=O)CCNC(=O)Nc1cc2nc(C)n(Cc3cccc(Cl)c3)c2nc1C	6	-5	5	i	1	2	-6	-9
CCN(CCn1cccn1)C(=O)CCc1nnc(C2(c3ccc(Cl)cc3)CCC2)o1	-39	54	-4	i	-8	-9	2	.
Cc1cc(C(F)(F)F)n(-c2nc(C(=O)NNS(=O)(=O)c3ccccc3)cs2)n1	-68	1	-3	i	-2	1	0	-13
CN(CC(=O)Nc1ccccc1C(F)(F)F)C(=O)CCc1nc2ccccc2c(=O)[nH]1	-27	0	.	i	-2	0	.	-8
CC(C)[C@H](NC(=O)c1ccco1)C(=O)OCC(=O)c1ccc2c(c1)NC(=O)CO2	17	-17	8	i	1	1	4	.
COc1cc2c(cc1OC)C(c1cc3ccc(C)cc3[nH]c1=O)N(C(=O)c1ccco1)CC2 (stereo unspecified)	4	.	-3	i	-3	-6	-5	11
CCOC(=O)C(Cc1ccc(OC)c([N+](=O)[O-])c1)NC(=O)CCC(=O)Nc1ccc(OC)cc1 (stereo unspecified)	-32	11	-12	i	-2	2	-2	.

Carrying on:
SMILES	Env fusion inh	CSC inhib	PABP FP inh	Rce1 inh	MT1-MMP act inh	MT1-MMP act inh RFP	eIF4H inh	Yeast UUG start	others
COc1ccc2[nH]c3c(c2c1)CCN1C(=O)C(CC(=O)NCCCN(C)C)C[C@H](C(=O)N2CCOCC2)[C@@]31CCC1CCCC1 (stereo partly specified)	3	.	.	.	-3	2	.	-7
CCN(CC)CCOC(=O)c1ccc(Cl)cc1Cl	10	-5	-2	.	-2	4	-3	.
NCCOc1ccc(C2CCCCC2)cc1	21	2	-1	i	-1	-3	-2	.
O=C(O)CCCNS(=O)(=O)/C=C/c1ccccc1	4	-43	-4	i	-3	-1	0	.
Cc1ccc(-c2csc(NC(=O)CSc3nc4ccccc4[nH]3)n2)cc1	20	.	-6	i	3	-6	-4	.
O=C(O)Cn1c(Cc2ccccc2)nc2ccccc21	16	-3	-1	.	-2	-4	-7	-9
CCn1nnnc1-c1ccc(OC)c(S(=O)(=O)N2CCCCC2)c1	-39	-8	3	i	-2	-4	-4	-10
CCOC(=O)c1c(-c2ccccc2)c(C(C)=O)c(=O)n(C)c1C	18	2	6	i	-2	2	3	-1
Cc1ccc(-c2cc(=O)c3cc(F)ccc3[nH]2)cc1	-14	5	-6	i	0	-6	12	6
CC1CCCC(C)N1CCNC(=O)Cn1nc(-c2ccccc2)ccc1=O (stereo unspecified)	.	-11	8	i	1	2	-5	-16

Sorted by molecular weight (ascending): 3 of the compounds above
SMILES	Env fusion inh	CSC inhib	PABP FP inh	Rce1 inh	MT1-MMP act inh	MT1-MMP act inh RFP	eIF4H inh	Yeast UUG start	others
NCCOc1ccc(C2CCCCC2)cc1	21	2	-1	i	-1	-3	-2	.
O=C(O)CCCNS(=O)(=O)/C=C/c1ccccc1	4	-43	-4	i	-3	-1	0	.
CCOC(=O)c1c(-c2ccccc2)c(C(C)=O)c(=O)n(C)c1C	18	2	6	i	-2	2	3	-1

(next part)
SMILES	Env fusion inh	CSC inhib	PABP FP inh	Rce1 inh	MT1-MMP act inh	MT1-MMP act inh RFP	eIF4H inh	Yeast UUG start	others
COc1cccc(C(CC(=O)NCC2CCCO2)NS(=O)(=O)c2ccc(C)cc2)c1OC (stereo unspecified)	.	.	-11	.	-2	3	2	-1
CC(C)CC1C(=O)N(Cc2cn(CCC3OCCO3)nn2)CCS(=O)(=O)N1Cc1ccc(-c2ccccc2)cc1 (stereo unspecified)	-13	.	.	.	-4	-4	.	-5
COc1ccc(C(=O)/C=C/c2ccc(OC)c(Cn3nnc4ccccc43)c2)cc1	38	77*	-5	i	-12	-22	-3	.
COc1ccc(CCNS(=O)(=O)c2ccc(Br)s2)cc1	-8	-4	-4	i	-3	0	-7	1
